TRPML1 blocker – human mucolipin-1 channel inhibition; Q9GZU1; TRPML1-inducible cells, Ca2+ dye fluorescence, FDSS; stronger effect = lower value; inhibition of EC80 agonist-evoked calcium signal; activity change, negative = inhibition, % (test concentration not listed); actives 0.02% (n = 390,000); in the data active means activity change below about -50%; inconclusive means about -30% to -50%; inactive means above about -30%;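 also: stimulus is agonist 54-4 at its EC80 concentration; % is scaled to controls: 0 for no effect and ±100 for the full control effect; compound concentration not given in the record; the text of the record puts the active cut at -80%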
Target sequence (Q9GZU1 whole entry, looked up): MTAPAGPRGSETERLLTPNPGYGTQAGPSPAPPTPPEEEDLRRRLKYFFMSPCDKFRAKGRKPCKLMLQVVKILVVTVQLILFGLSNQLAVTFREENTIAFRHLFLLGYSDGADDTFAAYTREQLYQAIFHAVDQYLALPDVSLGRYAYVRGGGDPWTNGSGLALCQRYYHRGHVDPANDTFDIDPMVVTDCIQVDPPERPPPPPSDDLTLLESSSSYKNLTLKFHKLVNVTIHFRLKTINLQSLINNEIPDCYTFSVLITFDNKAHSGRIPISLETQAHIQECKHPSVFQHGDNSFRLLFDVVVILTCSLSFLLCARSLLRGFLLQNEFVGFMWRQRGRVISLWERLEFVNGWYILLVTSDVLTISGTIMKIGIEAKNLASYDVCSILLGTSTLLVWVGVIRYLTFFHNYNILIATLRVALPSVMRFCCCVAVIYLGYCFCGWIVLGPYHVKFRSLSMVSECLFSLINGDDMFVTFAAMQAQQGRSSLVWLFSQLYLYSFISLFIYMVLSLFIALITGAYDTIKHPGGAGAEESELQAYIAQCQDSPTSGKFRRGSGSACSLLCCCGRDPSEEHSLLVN
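TRPML1-DL cells, Tet-induced overnight (~16 h, 37 °C) at 1,500 cells/well, were loaded with Ca8 no-wash dye plus quencher for 45-90 min at room temperature. Compounds were pinned during FDSS kinetic reading; agonist 54-4 at EC80 (4 uM final) then added.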
TRPML1 ag – human mucolipin-1 channel agonism; TRPML1-expressing cells, Ca2+ dye fluorescence, FDSS; host cell line not named in the record; reference of the full effect not given here; activation, % (concentration not given with the values); actives 0.12% (n = 410,000); AID 624414; in the data active = activation above about 50%; inconclusive = about 30% to 50%; inactive = below about 30%; also: 0% is about no effect; the text of the record puts the active cut at 80%
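In this qHTS format, compounds were pin-transferred onto Ca8-dye-loaded TRPML1-DL cells induced with Tet overnight, and intracellular Ca2+ fluorescence was recorded kinetically for 110 s after a 10 s baseline. A subsequent 4uM final 54-4 (EC80) addition followed by a second 110 s read served as the antagonist phase.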
gsp ag – gsp mutant agonism; actives 0.13% (n = 340,000); Potency, µM (titrated, usually from 76.9 µM), for inactives: at the top dose activation (cAMP increase), usual class: activators; gsp mutant cells, cAMP HTRF, 30 min; control for the full effect not named in the record; active = well fitted activation curve with a large enough effect; inconclusive = small, poorly fitted or top-dose-only effect, or another doubt; inactive = no such curve, though single readings can be large or run the other way; cell line not stated here;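 also: phosphodiesterase inhibitor Ro 20-1724 added with compounds to block cAMP breakdown; potency is read from the fitted curve at half-maximal effect; nearly all actives have a fitted effect of over 60% in size; about a fifth of the inactives were tested at one dose only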
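Cells in DMEM/10% FBS with G418 were pretreated with compounds in DMSO plus […] (300 uM stock) for 30 min at 37C. cAMP was measured by HTRF (cAMP-d2 plus anti-cAMP antibody-K) after 30 min at room temperature.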
gsp antag – antagonizes gsp, the McCune-Albright syndrome mutation; actives 0.4% (n = 340,000); Potency, µM (top dose mostly 76.9 µM), without a hit: at the highest dose activity change, negative = inhibition, most hits filed as inhibitors; gsp-mutant cells, cAMP HTRF, 30 min; control for the full effect not named in the record; AID 624288; active = falling curve of any shape with a large fitted effect; inconclusive = falling curve, mostly with a smaller effect; inactive = flat or rising curve; cell line not stated here;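 also: intracellular cAMP measured with PDE inhibitor Ro 20-1724 present during compound exposure; potency is read from the fitted curve at half-maximal effect; % is scaled to controls: 0 for no effect and ±100 for the full control effect; nearly all actives have a fitted effect of over 65% in size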
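Measurement of cellular cAMP by homogeneous time-resolved fluorescence following a 30 min compound exposure at 37C. The PDE inhibitor […] was present throughout; the assay buffer was DPBS with 0.05% BSA and 0.005% Tween 20.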
ClpP mod – qHTS Assay for Activators of ClpP; AID 651965, 2013; Potency, µM (doses to about 57.5 µM), for inactives: at the top dose activity change, negative = active; ATP-dependent Clp protease proteolytic subunit (Bacillus subtilis (strain 168)), P80244; actives 1.9% (n = 340,000); purified B. subtilis ClpP, FRET peptide cleavage, 20 min; active = well fitted falling curve with a large enough effect; inconclusive = small, poorly fitted or top-dose-only effect; inactive = no such curve, though single readings can be large or run the other way; also: potency is read from the fitted curve at half-maximal effect; the source files actives as falling curves though it sought activators and does not explain the sign; nearly all actives have a fitted effect of over 65% in size; many hits overshoot -100%
Target sequence (P80244 whole entry, looked up): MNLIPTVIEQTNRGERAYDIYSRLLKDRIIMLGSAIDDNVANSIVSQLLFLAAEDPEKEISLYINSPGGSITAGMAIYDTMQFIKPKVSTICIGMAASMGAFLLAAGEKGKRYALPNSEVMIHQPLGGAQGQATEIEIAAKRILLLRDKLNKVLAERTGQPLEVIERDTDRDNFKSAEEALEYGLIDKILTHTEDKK
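FRET quenching reversal measured ClpP activation: 10 microg/mL B. subtilis ClpP at pH 8 with the FRET-FV decapeptide, read at 430 nm after 320 nm excitation. The 20-min minus 0-min signal was scaled between DMSO/no-enzyme wells and ADEP (5.8 microM final).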
Menin MLL FP FL – inhibitors of human menin-MLL interaction, wild-type MLL peptide; FP activity change, % at 61.4 µM; Fluorescence polarization, fluorescein-MLL peptide displacement from menin; 290,000 tested, under 10 active; inconclusive = falling polarisation curve, or a change in total fluorescence; inactive = total fluorescence flat and polarisation flat or rising; no compound was filed as active; the % refers to the polarisation; negative = inhibition;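 also: % of control where 0% means no effect; inhibitors lower the polarisation; unlabelled MLL peptide was the positive control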
An asterisk follows results filed as active; ? = inconclusive; / = no result given; & = joins results of further samples; [ ] = another dose, or the depositor's remark.

SMILES	TRPML1 blocker	TRPML1 ag	gsp ag	gsp antag	ClpP mod	Menin MLL FP FL
COCCCNC(=O)CCCn1c(SCC(=O)c2ccc(Br)cc2)nc2c(sc3ccccc32)c1=O	-15	-0.4	/	/	-7.8%	/
O=C1CCN(Cc2ccccc2)C(=S)N1	-8	-0.3	-17%	9%	/	/
NCc1cccc(-n2cccn2)c1	2	-1.0	?	0%	-0.3%	5.8
COc1ccc(CNC(=O)COC(=O)CN2C(=O)C(C)Oc3ccc(C)cc32)cc1 (configuration not stated)	0	-0.1	5%[15.4 µM]	-9%	-2.2%	0.4
CN(CC(=O)NCCC1=CCCCC1)S(=O)(=O)c1ccc2c(c1)c(=O)n(C)c(=O)n2C	11	-0.4	?	-16%	-8.5%	-1.8
O=C(CSc1nc2ccccc2c(=O)[nH]1)c1cccs1	-10	1.7	8%	6%	-1.1%	-0.5
CCN(CC)CC(=O)NN=C(c1ccccc1)c1ccccc1	-8	2.4	3%	1%[15.4 µM]	-1.4%	4.5
O=C(CN1CCCc2ccccc21)N1CCc2ccccc21	0	-0.5	-8%	6%	/	3.6
CSc1nc(C)cc(OCCNS(=O)(=O)c2ccc(C)cc2)n1	-15	3.0	11%	4%	-1.0%	/
COCCOc1ccc(C(F)(F)F)cc1NC(=O)CN1C(=O)NC2(CCc3ccccc32)C1=O (configuration not stated)	25	1.2	-3%[15.4 µM]	-22%	1.2%	/
CCc1ccc(OCC(=O)Nc2ccc3c(c2)COC3=O)cc1	21	0.4	-1%	0%	0.7%	0.5
COc1ccc(CCNC(=O)CCn2c(=O)c3ccccc3n(Cc3ccc(Cl)cc3)c2=O)cc1OC	-18	-0.2	/	/	-1.1%	/
COC(=O)c1c(NC(=O)Cc2cccs2)sc(C)c1C	44	0.4	7%	-21%	-9.0%	0.3
CCOC(=O)c1c(-c2ccccc2)oc2ccc(OC(C)=O)cc12	23	0.0	?	-1%	?	5.1
COc1ccc(C2Nc3ccccc3C(=O)N2NS(C)(=O)=O)c(OC)c1 (configuration not stated)	16	0.8	-23%	4%	4.8%	3.0
O=C(Cc1cccc(NC(=O)C2CCCN(C(=O)C3CCCCC3)C2)c1)Nc1cccc(C(=O)N2CCCC2)c1 (configuration not stated)	-26	0.3	8%	-20%	0.5%	/
COc1ccccc1-c1nc(C#N)c(NCc2ccc(F)cc2)o1	3	0.0	-10%	1%	14%	6.3
COc1ccc2oc3ccc(OC)cc3c(=O)c2c1	6	0.3	-49%[inhibitor]	5%	?	5.0
Cc1ccc2nc3sc(C(=O)N4CCOCC4)c(N)c3cc2c1	12	0.6	?	2%	-20%	1.8
O=C(c1ccccc1F)c1cc2c(cc1[N+](=O)[O-])OCCO2	-6	2.5	27%	-11%	1.0%	4.3
COc1ccc(C(=O)NC(=S)NNC(=O)Cc2cccs2)cc1	2	-0.9	11%	1%	0.5%	2.6
COc1ccc(-c2csc(-c3cccnc3)n2)cc1C	2	2.2	10%	-3%	-16%	-1.9
COc1ccc2oc(C(=O)Nc3nc4ccc(S(C)(=O)=O)cc4s3)c(C)c2c1	-4	-0.7	21%	-19%	16µM*	/
O=C(c1cc(F)ccc1F)C1CCCN(C(=O)CSc2ccccn2)C1 (configuration not stated)	-12	1.1	24%	-9%	-0.1%	-4.2
O=C(Nc1ccc(O)c2c(=O)cc(-c3ccccc3Cl)oc12)c1ccc(F)cc1	8&21	0.4&-0.9	34%	-2%	-0.8%	2.7&-1.8
CCOC(=O)c1sc(NC(=O)Cc2ccc(F)cc2)nc1C	3	-0.8	6%[15.4 µM]	9%	/	-1.0
CC(=O)N1CCN(S(=O)(=O)c2ccc(F)c(Cl)c2)CC1	-3	-0.1	5%[15.4 µM]	-4%	-0.2%	-1.5
CCCCn1c(N)c(N(Cc2ccccc2OC)C(=O)C(C)Oc2cccc(Cl)c2)c(=O)[nH]c1=O (configuration not stated)	2	-0.9	-42%[inhibitor]	/	0.3%	/
Cc1ccc(CNCc2ccccc2)s1	11	-0.3	/	/	-0.7%	/
COCCNC(=S)N1CCc2cc(OC)c(OC)cc2C1COc1cc(C)cc(C)c1 (configuration not stated)	-7	3.2	-46%[inhibitor]	?	1.1%	-0.2
Cc1nc2nc(COc3ccccc3)[nH]n2c(=O)c1Cc1ccccc1	-4	-0.6	6%	-17%	1.1%	-2.3
Cc1ccc(S(=O)(=O)N2[C@@H](c3ccccc3)C(C(=O)O)=CC[C@H]2c2cccc(Cl)c2)cc1	3	-0.1	?	-4%	-1.2%	/
CN1Cc2c(N3CCOCC3)nc3sc(C(=O)c4ccc(Br)cc4)c(N)c3c2CC1(C)C	24	0.9	-5%[15.4 µM]	3%	/	7.5
COc1cccc(CNC2CCCCCCC2)c1OC	6	-0.6	-54%[inhibitor]	12%	/	-6.4
COc1ccccc1-n1c(SCC(=O)Nc2cccc(C(=O)O)c2)nnc1-c1ccccc1C	/	/	-46%[inhibitor]	-4%	0.8%	6.9
CCOC(=O)c1oc2ccccc2c1NC(=O)c1ccccc1OC	26	3.4	6%	3%	35µM*	2.6
O=C(COC(=O)Cc1ccccc1F)Nc1ccccc1[N+](=O)[O-]	15	1.5	6%	10%	-2.3%	/
CSc1nncc(/C(C)=N\Nc2ccccc2C)n1	-1	-1.9	21%	-1%	-0.6%	-2.4
CCN(CC)CCCNc1ncnc2ccccc12	-25	-0.2	7%	0%	-5.1%	-1.3
CCN1CCN(Cc2ccc(NC(=O)c3cc(NC(=O)c4cc(C)on4)cc(OC)c3)cc2C(F)(F)F)CC1	-3&6	0.6&-0.4	-45%[inhibitor]	8%	-0.3%&0.6%	-0.3
Cc1ccc(-c2nc(C(=O)NC3CCCCCC3)no2)cc1	67	3.1	-3%	3%	-0.2%	/
COc1ccc([N+](=O)[O-])cc1NCC(=O)c1ccc(C)cc1	0	2.2	-21%[15.4 µM]	-2%	/	?
O=C(COc1ccc(Cl)cc1)NCc1nnc2c3ccccc3c(-c3ccccc3)nn12	-5	2.0	?	1%	-9.6%	3.0
Cc1ccc(C)c(N2CCN(S(=O)(=O)c3cc4c(cc3C)NC(=O)CO4)CC2)c1	2	-0.8	-17%	-10%	1.8%	-3.0
COc1ccc(S(=O)(=O)N2CCOCC2)cc1NC(=O)COC(=O)C1=COCCO1	-7	-1.1	1%	0%	-0.5%	1.5
CCOc1ccc(CCNC(=O)c2nnc(Cc3ccc(F)cc3)o2)cc1OCC	-3	-0.1	0%	-3%	1.3%	3.2
O=C(NCCCN1CCOCC1)C(=O)NCC1OCCN1S(=O)(=O)c1cc(F)ccc1F (configuration not stated)	-9	-0.2	-3%	11%	-0.8%	-0.4
COc1ccc(NC(=O)Nc2nnc(-c3ccccc3SCc3ccccc3)s2)cc1	-17	0.2	?	-7%[15.4 µM]	?	2.1
COc1ccccc1NC(=S)NCCC(c1ccccc1)c1ccccc1	-1	1.4	-40%	-12%	-0.5%	-0.2
COc1ccc(S(=O)(=O)N2CCCCCC2)cc1NC(=O)Cc1cccc(C(F)(F)F)c1	11	-0.8	-2%	/	1.8%	/
Fc1cnc(N2CCOCC2)nc1N1CCOCC1	15	-0.1	21%[15.4 µM]	4%	/	-4.6
COc1ccc(C(CNS(=O)(=O)c2cccc(F)c2)N2CCCC2)cc1 (configuration not stated)	-2	-0.2	27%[15.4 µM]	-4%	0.0%	/
CC(C)CN1CCNC(=O)C1CC(=O)N(C)CC1CCOCC1 (configuration not stated)	-8	0.3	-19%[15.4 µM]	19%	/	-14
CC[n+]1c(C=C2C=C(C)OC(C)=C2)sc2ccccc21	2	0.3	-5%[15.4 µM]	?	/	?
Cc1occc1C(=O)NCCCCc1ccccc1	-5	2.5	30%	-10%	-1.3%	0.0
Cc1cccc(NC(=O)CCSc2ccccn2)c1	-15	-0.6	1%[15.4 µM]	-4%	-1.9%	-3.6
CCCCN(CC)C(=O)c1cc2c(=O)[nH]c3ccc(C)cc3c2s1	/	/	5%	-17%	3.9%	2.3
COc1ccnc(Oc2ccc(C)cc2)c1C#N	19	1.0	-6%	11%	-0.5%	2.8
COc1cc2c(cc1OC)C(c1cccs1)N(C(=O)C(C)C)CC2 (configuration not stated)	1	0.0	29%	5%	-1.8%	5.4
COc1cc(/C=C2\SC(=S)N(CCCCC(=O)O)C2=O)ccc1OS(=O)(=O)c1ccc(C)cc1	21	0.0	-12%	?	0.4%	/
(cont.)
SMILES	TRPML1 blocker	TRPML1 ag	gsp ag	gsp antag	ClpP mod	Menin MLL FP FL
COc1ccc(/C=c2\sc3nc(=O)c(C)nn3c2=O)c(OC)c1	7	0.4	?	6%	0.2%	3.9
CCOC(=O)C1CCCN(C2CCN(Cc3nc(Cc4ccccc4)no3)CC2)C1 (configuration not stated)	35	0.0	-11%[15.4 µM]	7%	/	0.1
O=C(NCCC(=O)N(CCc1ccccc1)Cc1ccccc1)c1ccccc1Cl	4	-0.2	-13%[15.4 µM]	-2%	-11%	/
Cc1ccnc(NS(=O)(=O)c2ccc(NS(C)(=O)=O)cc2)n1	/	/	14%	2%	-1.5%	-0.4
c1csc(-c2cc(N3CCCCC3)c3ccccc3n2)c1	-14	-0.5	3%[15.4 µM]	-11%	/	-7.3
CC1CC(=O)NC(=O)N1Cc1ccccc1 (configuration not stated)	10	0.3	-17%	6%	/	/
Cc1cc(/C=N/NC(=O)c2ccoc2C)cc(C)c1O	-3	-0.3	1%	/	-4.0%	/
Cc1c(C(=S)Nc2ccccc2)cnn1-c1ccccc1	2	-0.3	15%	-12%	-9.0%	1.4
COc1ccc(N2CC(C(=O)N[C@@H](C)C(=O)NCCc3ccccc3)CC2=O)cc1 (some centres not stated)	-17	0.5	-11%	-19%	0.7%	-10
CCC1CN(C(=O)N2CCC(C(=O)NCc3ccc(OC)cc3OC)CC2)c2cc(C)ccc2O1 (configuration not stated)	1	1.3	/	/	0.3%	/
O=C(NCc1nc2ccccc2[nH]1)C1=C[C@H](C2CC2)C[C@H](OCCCCO)O1	-6	0.2	8%	13%	-0.3%	0.2
COc1ccc(N(CC(=O)NCc2ccco2)C(=O)CCC(=O)Nc2nccs2)c(OC)c1	-3	0.4	?	0%	/	1.1

3 compounds from above, ordered by number of heavy atoms, high to low.
SMILES	TRPML1 blocker	TRPML1 ag	gsp ag	gsp antag	ClpP mod	Menin MLL FP FL
COCCCNC(=O)CCCn1c(SCC(=O)c2ccc(Br)cc2)nc2c(sc3ccccc32)c1=O	-15	-0.4	/	/	-7.8%	/
CN1Cc2c(N3CCOCC3)nc3sc(C(=O)c4ccc(Br)cc4)c(N)c3c2CC1(C)C	24	0.9	-5%[15.4 µM]	3%	/	7.5
CSc1nc(C)cc(OCCNS(=O)(=O)c2ccc(C)cc2)n1	-15	3.0	11%	4%	-1.0%	/

Rows are unselected. About 2.1% of those tested had a hit in this group.
